Screens: PubChem, Southern Research Institute
Mtb growth = Mycobacterium tuberculosis H37Rv growth inhibition, putative kinase inhibitor library, confirmatory dose response (AID 2842). M. tuberculosis H37Rv growth inhibition; higher % means a stronger effect; some inactives read as strong as hits. inhibition, % at 10 µg/mL, or IC90 in µg/mL where a hit was titrated. actives 5.2% (n = 24,000);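 active = confirmed in a dose series; inconclusive = mostly over 85% at the one dose but not retested; inactive = below 85% or not confirmed; about a fifth of its hits are not listed in these tables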;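 note: bacteria incubated one week before Alamar blue readout; 0% = bacteria only wells and 100% = bacteria with high antibiotic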
Starred values were filed as active, the others as inactive; ? = inconclusive. An excerpt; count on the stated rates, not on these rows.

SMILES	Mtb growth
Nc1nc(SCC(=O)c2ccc(O)c(O)c2)n[nH]1	0%
COc1ccc(-c2nc(NC(=O)COc3ccc(Cl)cc3Cl)sc2C)cc1	3%
CCOC(=O)c1nn(-c2ccc(F)cc2)c(=O)c2c(NC(=O)Cc3ccc(Cl)cc3)scc12	-5%
O=C(Nc1nc(-c2ccc(Cl)cc2Cl)cs1)c1ccc(S(=O)(=O)N2CCCCC2)cc1	24%
Cc1cc(C)cc(C(=O)Nc2cc3c4c(c2)C(C)C(=O)N4CCC3)c1 (configuration not stated)	45%
O=C(CSc1ccc2nnc(-c3ccc(F)cc3)n2n1)N1CCCC1	-2%
Cc1ccc2cc(CCNC(=O)c3c(F)cccc3F)c(=O)[nH]c2c1C	-1%
CC1CC(C)CN(c2nc3c(c(=O)[nH]c(=O)n3C)n2CCSc2ncccn2)C1 (configuration not stated)	-18%
COc1ccc2c(c1)c1nnc(-c3ccc(C)cc3)c-1cn2Cc1ccc(C)cc1	20%
O=C(CSc1nc2c(c(=O)n1-c1ccccc1)SCC2)Nc1ccc(Br)cc1	2%
CCOCCn1c(SCC)nc2c1c(=O)[nH]c(=O)n2C	7%
Cc1cccc(C(=O)Oc2cc(C)[nH]c(=O)c2[N+](=O)[O-])c1	4%
Cc1ccc(/C=N/NC(=O)c2cc(-c3ccc(Br)cc3)nc3ccccc23)cc1	55%
CCOC(=O)c1nn(-c2ccc(F)cc2)c(=O)c2c(NC(=O)c3cccs3)scc12	3%
COc1ccc2cc(CCNC(=S)Nc3cccc(F)c3)c(=O)[nH]c2c1	31%
O=C(Nc1nc(-c2cc3ccccc3oc2=O)cs1)C1CC1	-5%
O=C1CCc2cc(S(=O)(=O)NCc3cccnc3)cc3c2N1CC3	4%
O=C1C(Cl)=C(NCCc2ccccc2)C(=O)N1C1CCCCC1	4%
Cn1c(=O)n(C)c2cc(S(=O)(=O)NCc3ccco3)ccc21	-19%
COC(=O)c1ccc(CSc2nc3c(c(=O)n2-c2ccccc2)SCC3)o1	9%
Cc1ccc(C)c(-c2nnc(NC(=O)c3ccc(S(=O)(=O)N(C)c4ccccc4)cc3)o2)c1	13µg/mL*
O=C(Nc1cccc(-c2ccc3nncn3n2)c1)C(c1ccccc1)c1ccccc1	-15%
COC(=O)c1ccc2c(c1)C(=O)/C(=C/c1ccc(N(C)C)cc1)O2	7%
Cc1ccccc1C(=O)Nc1ccc(O)c(-c2nc3ccccc3s2)c1	4%
COc1ccc(NC(=O)CSc2nc3[nH]ncc3c(=O)[nH]2)cc1OC	-2%
CC(C)C(=O)Nc1nnc(-c2ccco2)o1	12%
CC1=C(C(=O)Nc2ccccc2)C(c2ccco2)C(C#N)=C(SCc2ccccc2Cl)N1 (configuration not stated)	2%
O=C(CCCc1ccccc1)Nc1c(C(=O)Nc2ccc3c(c2)OCO3)oc2ccccc12	-1%
CC(=O)Nc1ccc(S(=O)(=O)N2CCN=C2SCc2cccnc2)cc1	-15%
CC(=O)Nc1ccc(NS(=O)(=O)c2cc3c4c(c2)C(C)C(=O)N4CCC3)cc1 (configuration not stated)	-8%
CC(=O)c1cccc(NC(=O)NC2CC(=O)N(c3ccc4c(c3)OCCO4)C2)c1 (configuration not stated)	1%
N#Cc1c(NC(=O)c2ccc(S(=O)(=O)N3CCCC3)cc2)sc2c1CCN(Cc1ccccc1)C2	-3%
Cc1ccc(C)c(-n2c(SC/C=C/c3ccccc3)nc3c([nH]c4ccccc43)c2=O)c1	11%
CCOc1ccc(Cc2nnc(SCC(=O)Nc3ccccc3C)n(N)c2=O)cc1	1%
CSc1nnc(NC(=O)C2CC2)s1	3%
Cc1ccc(N=C2NC(=O)/C(=C/c3ccccc3)S2)cc1	14%

Given field by field: part of the list above.
Cc1ccc(C)c(-n2c(SC/C=C/c3ccccc3)nc3c([nH]c4ccccc43)c2=O)c1
  Mtb growth = 11%

CSc1nnc(NC(=O)C2CC2)s1
  Mtb growth = 3%

N#Cc1c(NC(=O)c2ccc(S(=O)(=O)N3CCCC3)cc2)sc2c1CCN(Cc1ccccc1)C2
  Mtb growth = -3%

Other records.
SMILES	Mtb growth
Cc1cc(C)cc(NC(=O)CSc2nc(N)c(NC(=O)c3ccco3)c(=O)[nH]2)c1	-7%
O=C(Nc1nc(-c2ccccc2)c(C(=O)c2ccccc2)s1)c1ccc(Br)cc1	-7%
O=C(CCn1c(=S)[nH]c2ccccc2c1=O)N1CCOCC1	-10%
COc1ccc2nc(-c3ccc(OC)c(NC(=O)C4CCCC4)c3)cn2n1	2%
COc1ccccc1C(=O)NCCc1cc2ccc(C)cc2[nH]c1=O	-4%
Cc1ccc(-n2ncc3c(=O)n(CC(=O)NC4CCCCC4)cnc32)cc1C	0%
COc1cc(/C=C2\SC(=S)N(c3ccccc3)C2=O)ccc1OCC(=O)Nc1nccs1	6%
O=C(CN1C(=O)CCC1=O)Nc1ccc(-c2nc3ccccc3s2)c(O)c1	-3%
CCOc1ccc(C(=O)Nc2c(N)nc(SCC(=O)N3CCCCC3)[nH]c2=O)cc1	-7%
Cc1cc2cc(CCNC(=O)Cc3ccc(F)cc3)c(=O)[nH]c2cc1C	2%
Cc1ccc(NC(=O)CC2Nc3ccc(C(F)(F)F)cc3NC2=O)c(C)c1 (configuration not stated)	-15%
CC(=O)c1ccc(S(=O)(=O)Nc2ccc(-n3c(C)nc4ccccc4c3=O)cc2)cc1	2%
O=C1C(=O)N(CCOc2ccc(Cl)cc2)c2ccccc21	15%
COc1cc(/C=C(\C#N)c2nc3ccccc3c(=O)[nH]2)ccc1OCc1ccccc1	-5%
Nc1nc(SCC(=O)Nc2cccc([N+](=O)[O-])c2)[nH]c(=O)c1NC(=O)c1ccc(F)cc1	-18%
Cc1ccc(-c2csc(NC(=O)c3ccc(S(=O)(=O)N(C)c4ccccc4)cc3)n2)c(C)c1	16%
CC1(C)Cc2c(sc(NC(=O)c3ccc(Br)cc3)c2C(N)=O)C(C)(C)N1	22%
COc1cccc(Cn2cc(C(=O)c3ccc(Cl)cc3)c(=O)c3cc4c(cc32)OCCO4)c1	35%
O=C(Nc1nnc(-c2ccc(F)cc2)o1)c1ccc2c(c1)CCCC2	8.7µg/mL*
CC(=O)c1sc(N/N=C/c2cccc(O)c2)nc1C	-3%
CCc1nnc(-c2cc3ccccc3n2Cc2cccnc2)o1	16%
CCCCC(=O)Nc1scc2c(C(=O)OCC)nn(-c3ccccc3)c(=O)c12	29%
CC1CCCCN1S(=O)(=O)c1ccc(C(=O)Nc2ccccc2Oc2ccccc2)cc1 (configuration not stated)	10%
Cc1ccc(C(=O)CSc2nnc3ccc(-c4ccco4)nn23)cc1	-4%
Cn1c(=O)[nH]c(=O)c2c1nc(N1CCOCC1)n2CCSc1ncccn1	2%
C=CCOCC(O)Cn1c(N2CCN(Cc3ccccc3)CC2)nc2c1c(=O)[nH]c(=O)n2C (configuration not stated)	-18%
Cc1ccc(NC(=O)CN2N=NC3C(=O)N(c4ccc(F)c(F)c4)C(=O)C32)cc1C (configuration not stated)	-5%
COc1ccc(Cl)cc1NC(=O)CSc1ccc2nnc(-c3ccccc3)n2n1	-2%
CC(=O)C(Sc1ccc2nnc(-c3ccc(C)cc3)n2n1)C(C)=O	-7%
Cc1ccc2oc(C(=O)Nc3nnc(C(C)C)s3)c(C)c2c1	?
COc1cc(-c2nnc(NC(=O)/C=C/c3ccccc3Cl)o2)cc(OC)c1OC	-3%
COc1ccc(-c2nnn3c2nc(NCc2ccccc2)c2ccccc23)cc1	-2%
CC(C)N1CCc2c(sc(NC(=O)c3ccccc3Oc3ccccc3)c2C(N)=O)C1	82%
Cc1cc(Oc2coc3cc(OC(=O)c4cccs4)ccc3c2=O)cc(C)c1Cl	46%
Cc1ccc2nc(-c3ccc(N=c4oc5ccccc5cc4C(N)=O)cc3)sc2c1	3%
NCCSc1ncc(-c2ccc(Cl)cc2)[nH]1	-10%
COc1cccc(/C(O)=C2\C(=O)C(=O)N(Cc3cccnc3)C2c2ccccc2OC)c1 (configuration not stated)	-10%
Nc1nc(SCC(=O)N2CCCCCC2)[nH]c(=O)c1NC(=O)c1ccco1	-19%
Cc1ccc(S(=O)(=O)N2CCCc3ccc(NC(=O)c4ccc(C)c([N+](=O)[O-])c4)cc32)cc1	1%
O=C(CCCc1nnc2c(=O)n(-c3ccc(Cl)cc3)ccn12)NCc1cccs1	-5%
Cc1ccc2cccc(OC(=O)c3ccc(C)c(C)c3)c2n1	12%
Nc1nc(SCC(=O)Nc2ccccc2C(F)(F)F)[nH]c(=O)c1NC(=O)c1ccccc1F	-6%
NC(=O)CSc1ccc2nnc(-c3ccncc3)n2n1	-6%
O=C(Nc1nnc(C2=COCCO2)o1)c1cc2cc([N+](=O)[O-])ccc2s1	83%
N=c1oc2c3c4c(cc2cc1C(=O)Nc1ccc(F)c(Cl)c1)CCCN4CCC3	8%
CC1=C(C(=O)Nc2ccc(F)cc2)C(c2ccncc2)n2ncnc2N1 (configuration not stated)	3%
Cc1ccc(NCC(O)Cn2c3ccccc3n3c(=O)cc(C)c(C#N)c23)cc1C (configuration not stated)	2%
O=C(NCCS(=O)(=O)N1CCCCCC1)c1ccc2c(c1)OCO2	-12%
N#Cc1c(NC(=O)CSc2nnc3sc4ccccc4n23)sc2c1CCC2	3%
O=C(COc1ccccc1)NNc1nc2c(Cl)cccc2s1	4%
C=C(C)Cn1c(NCCC)nc2c1c(=O)[nH]c(=O)n2C	-8%
O=C(CC1Nc2ccccc2NC1=O)Nc1cccc(C(=O)O)c1 (configuration not stated)	1%
CCOC(=O)C1C(=O)C=C(c2cccc(NS(C)(=O)=O)c2)CC1c1ccccc1OCC (configuration not stated)	-8%
CCOC(=O)c1ccc(CC2SC(N)=NC2=O)cc1 (configuration not stated)	3%
COc1ccc(NC(=O)c2cn(C)cc3c(=O)n(-c4ccccc4)nc2-3)c(OC)c1	-15%
CCOCC(=O)Nc1c(C(=O)Nc2ccccc2)oc2ccccc12	12%
COc1c(C)cnc2c1c(=O)n(Cc1cccnc1)c(=O)n2C	-4%
CCOC(=O)c1nn(-c2ccc(Cl)cc2)c(=O)c2c(NC(=O)c3cccc(C)c3)scc12	4%
CCCCCOc1cccc(C(=O)Nc2nc3ccc(S(C)(=O)=O)cc3s2)c1	16%
COC(=O)c1ccc(/C=N/NC(=O)c2cc(-c3ccc(OC)c(OC)c3)n[nH]2)cc1	-3%

Taken from the listing for reference:
SMILES	Mtb growth
CCOC(=O)c1ccc(CC2SC(N)=NC2=O)cc1 (configuration not stated)	3%
COc1ccc(NC(=O)c2cn(C)cc3c(=O)n(-c4ccccc4)nc2-3)c(OC)c1	-15%
CCOCC(=O)Nc1c(C(=O)Nc2ccccc2)oc2ccccc12	12%
COc1c(C)cnc2c1c(=O)n(Cc1cccnc1)c(=O)n2C	-4%
CCOC(=O)c1nn(-c2ccc(Cl)cc2)c(=O)c2c(NC(=O)c3cccc(C)c3)scc12	4%
CCCCCOc1cccc(C(=O)Nc2nc3ccc(S(C)(=O)=O)cc3s2)c1	16%
COC(=O)c1ccc(/C=N/NC(=O)c2cc(-c3ccc(OC)c(OC)c3)n[nH]2)cc1	-3%

Returning to the listing; the 4 compounds before the break are reprinted first.
SMILES	Mtb growth
COc1c(C)cnc2c1c(=O)n(Cc1cccnc1)c(=O)n2C	-4%
CCOC(=O)c1nn(-c2ccc(Cl)cc2)c(=O)c2c(NC(=O)c3cccc(C)c3)scc12	4%
CCCCCOc1cccc(C(=O)Nc2nc3ccc(S(C)(=O)=O)cc3s2)c1	16%
COC(=O)c1ccc(/C=N/NC(=O)c2cc(-c3ccc(OC)c(OC)c3)n[nH]2)cc1	-3%
CCC(=O)Nc1ncc(S(=O)(=O)c2ccc([N+](=O)[O-])cc2)s1	8%
O=C(Nc1nc(-c2ccc(Br)cc2)cs1)c1ccc(N2C(=O)CCC2=O)cc1	13%
CC1(C)Cc2c(sc(NC(=O)c3cccc(F)c3)c2C#N)C(C)(C)N1	-10%
Cc1ccc(-c2csc(NC(=O)c3cc(=O)c4ccccc4o3)n2)c(C)c1	67%
COCCSc1nc2c(c(=O)[nH]c(=O)n2C)n1Cc1ccccc1	0%
CC1(C)CC(=O)c2sc(NC(=O)c3cc(=O)c4ccccc4o3)nc2C1	-8%
CCOC(=O)C1=C(C)N=c2s/c(=C/c3cc([N+](=O)[O-])ccc3O)c(=O)n2C1c1cccs1 (configuration not stated)	-13%
COc1cc(/C=C2/SC(=S)N(NC(=O)c3cccc(O)c3)C2=O)ccc1O	-9%
CCOc1cccc2sc(Nc3nc4c(OC)cccc4s3)nc12	23%
N#C/C(C(=O)NCc1ccccc1)=C1/N=C(NC(=O)c2cccnc2)c2ccccc21	-8%
Cn1c(=O)c2c(nc(N3CCN(c4cccc(Cl)c4)CC3)n2CCSc2ncccn2)n(C)c1=O	14%
CCOC(=O)c1ccc2nc(NC(=O)C3CC3)sc2c1	1%
CC(C)N1CCc2c(sc(NC(=O)c3sc4ccccc4c3Cl)c2C#N)C1	2%
CCOC(=O)c1c(/N=c2\oc3ccccc3cc2C(N)=O)sc2c1CCCC2	17%
COc1ccc2nc(Nc3ccc(Cl)cc3)sc2c1	12%
Cc1cc(C)nc(SCc2cc(=O)c(OC(=O)c3ccc(C)c([N+](=O)[O-])c3)co2)n1	-4%
